Bioassay records from PubChem BioAssay.
HSD17B inhib = qHTS Assay for Inhibitors of HSD17B4, hydroxysteroid (17-beta) dehydrogenase 4 | Potency, µM (doses to about 57.1 µM), inactives show at the top dose activity change, negative = inhibition, usual class: inhibitors | 7.6% of 75,000 active | recombinant HSD17B10, NADH fluorescence kinetic; many of its hits are not listed in these tables | 3-hydroxyacyl-CoA dehydrogenase type-2 (Homo sapiens), Q99714 | AID 893, 2007; active = well fitted inhibition curve with a large enough effect; inconclusive = small, poorly fitted or top-dose-only effect; inactive = no such curve, though single readings can be large or run the other way;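 also: the protocol describes HADH2 (HSD17B10) and not the HSD17B4 of the title; nearly all actives have a fitted effect of over 70% in size; most hits overshoot -100% by far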
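Activity followed as NADH fluorescence increase (ex 360, em 450 nm) every 30 seconds for 4 min, using final 90 uM beta-hydroxybutyryl CoA and 1 mM NAD+. Recombinant His-tagged enzyme, 20 nM, pH 9.0 Tris buffer, 15 min compound preincubation.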
* marks the source's active call; other numbers are inactive results; ? = inconclusive; [ ] = remark or other dose. % is scaled to controls: 0 for no effect and ±100 for the full control effect; potency is read from the fitted curve at half-maximal effect. These rows are one share of the data; rates above refer to the full screens.

SMILES | HSD17B inhib
COc1ccc(NC(=O)NCCN2CCc3ccccc3C2)cc1 | -7%
Cc1ccc(CSc2nnnn2C)cc1 | 6%
COc1ccc(OC)c(NC(=O)C2CC(C)=C(C)CC2C(=O)O)c1 (centres undefined) | 6%
Nc1nnc(SCc2ccccc2Cl)s1 | 4%
CC1CCc2cc(F)ccc2N1C(=O)c1ccc2c(c1)OCO2 (centres undefined) | 1%
Cc1nc(NS(=O)(=O)c2cccs2)c2c3c(sc2n1)CCC3 | -19%
Cc1ccc(NC(=O)Cc2nc(CSc3nnc(-c4ccc5c(c4)OCO5)o3)cs2)cc1 | -12%
COC(=O)Nc1ccc(NC(C)=O)cc1 | 2%
CCOC(=O)N1CCN(C(=O)C2CCN(S(=O)(=O)c3cc(Cl)ccc3Cl)CC2)CC1 | -11%
CC1(C)Cc2nc(-c3ccccc3)n3cnnc3c2CO1 | 13%
CN(C)CC(=O)N1c2ccccc2CCc2ccc(NC(=O)c3ccc(N)cc3)cc21 | 4%
Cc1nn(C)c(C)c1CN(C)C(=O)c1cnn2c1NC(c1ccccc1)CC2C(F)(F)F (centres undefined) | -8%
Cc1cc(-c2ccccc2)nc2cc(C(N)=O)nn12 | 32µM*
COc1cc(Cl)c(C)cc1NC(=O)COC(=O)c1cnc(C)cn1 | 11%
CCCCCCNC(=O)c1c(N)n(/N=C/c2ccco2)c2nc3ccccc3nc12 | -13%
Cc1nnc2sc(-c3ccco3)nn12 | 10%
COc1cccc(OC)c1C(=O)Nc1ccc(N2CCN(S(C)(=O)=O)CC2)cc1 | 6%
O=C(O)c1ccc(C(=O)Nc2cccc3ccccc23)c(C(=O)O)c1 | 3.2µM*
O=C(NCc1ccco1)c1ccc(COCC(F)(F)C(F)F)cc1 | -6%
COc1ccc(-n2nc(C(=O)Nc3ccc4c(c3)OCO4)c3ccccc3c2=O)cc1 | 2%
CCCNC(=O)Nc1cc(C)on1 | 7%
COc1cccc(NC(=O)N2CCN(Cc3nc4ccccc4c(=O)[nH]3)CC2)c1 | 11%
N#Cc1cccc(NC(=O)c2nc(-c3ccccc3)n(-c3ccccc3)n2)c1 | ?
O=C(c1ccccc1)[C@H](Nc1ccc2ccccc2c1)c1ccccc1 | -1%[11.4 µM]
O=c1[nH]c(C2CCCN(S(=O)(=O)c3ccc(F)cc3)C2)nc2c1nnn2Cc1ccccc1 (centres undefined) | -21%

The list goes on:
SMILES | HSD17B inhib
NS(=O)(=O)c1ccc(CCNC2CC(=O)N(Cc3ccccc3)C2=O)cc1 (centres undefined) | -14%
O=C(c1ccncc1)c1nccn1-c1ccccn1 | 2%
CC/C(=C(\c1ccccc1)c1ccc(OCCN(C)C)cc1)c1ccc(O)cc1 | 1%
O=C(OCC(O)C(O)COC(=O)c1ccccc1)c1ccccc1 (centres undefined) | 10%
Cc1ccc(C(C(=O)NC2CCCCC2)N(C(=O)c2csnn2)C2CCCC2)o1 (centres undefined) | 2%
CCOc1cccc(OCCCNCCCOC)c1 | -4%
CCN(CC)C(=O)CSc1nnc(CCN)o1 | 9%
O=C1C2C3C=CC(C3)C2C(=O)N1c1ccncc1 (centres undefined) | 8%
O=C(NCc1ccco1)C(C(=O)c1ccc(F)cc1)n1ccccc1=O (centres undefined) | 0%
COc1cc(C(=O)NCCC(=O)NCCN2CCOCC2)cc(OC)c1OC | -5%
O=C1CC(N2CCN(c3ccc(S(=O)(=O)N4CCCC4)cc3)CC2)C(=O)N1c1ccc(F)cc1 (centres undefined) | ?
CC(=O)Nc1cccc(NC(=O)C2CCCN2C(=O)Nc2cccc(F)c2)c1 (centres undefined) | -1%
Cc1cccc(CNc2ncncc2-c2cccnc2)c1 | 10%
O=c1[nH]c(=O)n(C2CCCO2)cc1Br (centres undefined) | 2%
CCN(CC)CCOC(=O)c1cccc(OC)c1 | -14%
Clc1c(CSc2nc3ccccc3o2)nc2ccccn12 | -18%
CCC1=C(OC(=O)N(CC)CC)N2C(=O)OC(=NCC(=O)OC)[C@]2(C)[C@H]2C1=CC[C@H]1C(=O)N(CC)C(=O)[C@H]12 | 6%
Cc1ccc(S(=O)(=O)/N=C(\CN2CCCCC2)N2CCOCC2)cc1 | 0%
O=c1c2ccccc2oc2ncccc12 | 9%
COc1ccccc1/C=c1\sc2nc(-c3ccncc3)nn2c1=O | 0%
Cn1nc(-c2ccc(Cl)cc2)c2cc(C(=O)NCCCN3CCOCC3)sc21 | 32µM*
Cc1ccc2cc(CN(CC(C)C)C(=O)C3CCCO3)c(=O)[nH]c2c1 (centres undefined) | ?
CN(C)S(=O)(=O)c1ccc(C(=O)OCC(=O)c2ccc(OC(F)F)cc2OC(F)F)cc1 | 1%
Cc1nn(CC(=O)Nc2ccccc2)c(=O)c2ccccc12 | -9%
C1CCCC1 | 1%

More entries follow.
SMILES | HSD17B inhib
[O-][N+]12CC[N+]([O-])(CC1)c1ccccc12 | 10%
CNC(=O)NC(=O)CSc1ccc(NC(C)=O)cc1 | 5%
Cc1cc(C)c2cc3c(ccn3C3OC[C@H](O)[C@H](O)[C@H]3O)cc2n1 (some centres undefined) | 1%
Nc1ccc(O)cc1C(=O)OCC(=O)C12CC3CC(CC(C3)C1)C2 | 102%[activator]
c1nnc(NC2=NCCCCC2)s1 | 3%
COc1cc(C2NC(=O)NC(C)=C2C(=O)OC(C)(C)C)ccc1OCC(N)=O (centres undefined) | -5%
CCOc1ccc(C2C(C#N)=C(N)Oc3cc(C)n(Cc4ccco4)c(=O)c32)cc1OC (centres undefined) | 6%
C#CCCCCCCCCCCCC(=O)CC(O)COC(C)=O (centres undefined) | -4%
COC(=O)CCCCCNc1ccc(C(=O)OC)cc1N | ?
COc1cccc(Nc2cc(C)nc3ccccc23)c1 | -13%
CC(=O)Oc1ccc(-c2ccc(C(=O)O)cc2)cc1 | 32%[activator]
Cc1ccc(Cl)cc1N1CCN(C(=O)c2cc3c(=O)n(C)c4ccccc4c3n2C)CC1 | 3%
COCCCNCCOc1cc(C(C)C)ccc1C | 2%
Cc1ccc(F)cc1NC(=O)C1CCN(c2cnccn2)CC1 | -1%
OC(CNCCc1ccccc1)c1ccccc1 (centres undefined) | 8%
CCC(C)COC(=O)C(C#N)c1nc2ccccc2nc1N1CCCCC1 (centres undefined) | -4%
O=C(O)Cc1ccc(O)c(O)c1 | ?
CC(C)(C)NC(=O)CN(C(=O)CS(=O)CC(=O)Nc1ccc(F)cc1)c1ccccc1 (centres undefined) | 4%
C[C@@H]1C[C@H](C)CN(S(=O)(=O)c2cc(Cl)c(Oc3ccc([N+](=O)[O-])cc3Cl)c(Cl)c2)C1 | 9%[11.4 µM]
O=c1c2ccccc2nc(-c2ccccc2)n1CCCn1ccnc1 | -10%
COc1ccc(OC)c(NC(=O)CN(c2ccc(C(C)C)cc2)S(=O)(=O)c2c(C)noc2C)c1 | -9%
Cc1ccc2cc(C#N)c(N3CCCC3)nc2c1C | 25µM*
COC(=O)c1ccc(C(NC(=O)OCc2ccccc2)/C(C)=C/[C@@H](C)C(=O)N[C@@H](CO)Cc2ccccc2)cc1 (some centres undefined) | 3%
CCOc1ccccc1C(=O)n1nc2nc(C)cc(C)c2c1N | 5%
CCOC(=O)c1sc(NCCNc2nc(C)c(C(=O)OCC)s2)nc1C | -9%

Exported field by field: 2 of the compounds above.
CCOc1ccc(C2C(C#N)=C(N)Oc3cc(C)n(Cc4ccco4)c(=O)c32)cc1OC (centres undefined)
  HSD17B inhib: 6%

COc1ccc(-n2nc(C(=O)Nc3ccc4c(c3)OCO4)c3ccccc3c2=O)cc1
  HSD17B inhib: 2%

Structural class, those above containing a furan ring, fused or not
SMILES | HSD17B inhib
CCCCCCNC(=O)c1c(N)n(/N=C/c2ccco2)c2nc3ccccc3nc12 | -13%
Cc1nnc2sc(-c3ccco3)nn12 | 10%
O=C(NCc1ccco1)c1ccc(COCC(F)(F)C(F)F)cc1 | -6%
Cc1ccc(C(C(=O)NC2CCCCC2)N(C(=O)c2csnn2)C2CCCC2)o1 (centres undefined) | 2%
O=C(NCc1ccco1)C(C(=O)c1ccc(F)cc1)n1ccccc1=O (centres undefined) | 0%
CCOc1ccc(C2C(C#N)=C(N)Oc3cc(C)n(Cc4ccco4)c(=O)c32)cc1OC (centres undefined) | 6%

Later entries
SMILES | HSD17B inhib
O=C(c1ccc(Cn2cc(Br)cn2)o1)n1cccn1 | -16%
COCCNc1ncnc2ccc(-c3ccccc3C)cc12 | ?
Cc1cc(C)n(-c2nc(SCC(=O)N3CCCC3)c3c4c(sc3n2)CCCC4)n1 | 5%
Clc1cccc(C=NC=Nc2cccc(Cl)c2)c1 | -9%
COc1ccc(N2CC(C(=O)NCc3cccnc3)CC2=O)cc1 (centres undefined) | 11%
COc1cccc(C(O)c2cnc(C(C)C)n2C)c1OC (centres undefined) | 5%
CC(=O)c1n[nH]nc1NC(=O)c1ccccc1 | 12%
O=C(NC1CCCCCCC1)c1ccc2c(c1)N(Cc1ccc(F)cc1)C(=O)CS2=O (centres undefined) | -7%
CCc1ccc(S(=O)(=O)NCc2csc(-c3ccccc3)n2)s1 | -6%
O=C1CCc2cc(S(=O)(=O)N3CCC(C(=O)NCc4ccccc4Cl)CC3)ccc2N1 | -1%
COc1ccc(CCNC(=O)CCCn2c(=O)[nH]c3cc(OC)c(OC)cc3c2=O)cc1OC | ?
O=C(Cc1ccc(-n2cccc2)cc1)NCc1cccs1 | 4%
CCSc1nnc(Cn2c(=O)sc3ccccc32)n1C | 8%
CCCCNC(=O)Cn1c(=O)n(C)c2ccccc21 | 4%
CNC(=O)CN(c1cc(C)ccc1OC)S(=O)(=O)c1ccc(C)cc1 | 1%
CC1CCN(C(=O)CSc2nc(N)cc(N)n2)CC1 | -4%
Cc1cc(C)c(S(=O)(=O)Nc2ccccc2C(=O)O)cc1C | ?
Cc1ccc2[nH]c3c(c2c1)CCc1cn[nH]c1-3 | 16µM*
COc1ccc2c(c1)C(=O)CC(c1ccccc1F)O2 (centres undefined) | ?
CC(=O)OCc1cc(=O)n(C)c(=O)n1C | 3%
O=C(CSc1nnc(COc2ccc(Cl)cc2)o1)OC1CCCCC1 | -10%
CCC1CCCCN1CCCNC(=O)Cn1nc(-c2ccccc2)ccc1=O (centres undefined) | -24%
Cc1ccc2c(CC(=O)OCc3csc(C)n3)coc2c1 | 0%
CCCn1nnc(NC(=O)c2ccc(-c3ccccc3)cc2)n1 | 0%
CCOC(=O)c1ccc(CSc2nnc(N)s2)cc1 | 1%

(cont.)
SMILES | HSD17B inhib
Cc1cc(NCCCn2ccnc2)n2nc(-c3ccc(F)cc3)cc2n1 | 25µM*
CCNc1nc(-c2ccc(Cl)cc2)cs1 | -4%
Cc1sc2nc(CN3CCOCC3)nc(Oc3ccc(NC(=O)c4ccco4)cc3)c2c1C | 8%
CC(=O)OC1CC(OC(C)=O)[C@]2(C)C(CC(OC(C)=O)[C@@]3(C)C4=CC(=O)OC(c5ccoc5)[C@]4(C)CCC32)C1(C)C (some centres undefined) | 2%
CCCCn1cnc2c(cnn2-c2ccc(F)cc2)c1=O | -1%
Oc1ccc([C@@H]2CNCc3sccc32)cc1O | 10µM*
CCc1n[nH]c2c1/C(=N/O)CCC2 | -17%
CCOC(=O)N1CCC(NC(=O)C(Cc2ccccc2)NC(=O)C2CCCCC2)CC1 (centres undefined) | 11%
C=CCn1c(COc2ccccc2C)nnc1SCC(=O)O | 5%
Cc1cc(N2CCCC2)n2nc(C)c(-c3ccccc3)c2n1 | 1%
C#CCn1c(=O)c2c(ncn2C)n(C)c1=O | 5%
Cc1cccc(-n2c(CNC(=O)COc3ccccc3)nnc2SCC(=O)Nc2nccs2)c1 | 0%
Cc1cc2oc3c(c(=O)c2cc1C)C(c1cccc(Br)c1)N(Cc1ccco1)C3=O (centres undefined) | -5%
O=c1[nH]nc(Cc2ccccn2)c2ccccc12 | 5%
N[C@@H](COP(=O)(O)O)C(=O)O | -12%
CN1CCN(C2CCCCCC2)CC1 | 0%
COc1ccc(C(c2nnnn2CCc2ccccc2)N2CCN(C)CC2)cc1OC (centres undefined) | -2%
COC(=O)c1ccc(OC)c(CSc2nnc(COc3ccc(Cl)cc3)o2)c1 | -19%
O=c1c(=O)n(O)c2ccccc2n1O | 0%
CCOC(=O)CSc1nc(N)nc(C)c1Br | -5%
COc1ccc2c(c1)[nH]c1c(N3CCN(Cc4ccc5c(c4)OCO5)CC3)ncnc12 | -9%
CCc1nc(SCC(=O)NCCc2ccc(OC)c(OC)c2)c2c(=O)n(C)c(=O)n(C)c2n1 | 6%
O=C(O)C1C2C=CC(C2)C1C(=O)N1CCN(C/C=C/c2ccccc2)CC1 (centres undefined) | 4%

Filtered by structure, those above containing a COOH group.
SMILES | HSD17B inhib
COc1ccc(OC)c(NC(=O)C2CC(C)=C(C)CC2C(=O)O)c1 (centres undefined) | 6%
O=C(O)c1ccc(C(=O)Nc2cccc3ccccc23)c(C(=O)O)c1 | 3.2µM*
CC(=O)Oc1ccc(-c2ccc(C(=O)O)cc2)cc1 | 32%[activator]
O=C(O)Cc1ccc(O)c(O)c1 | ?
Cc1cc(C)c(S(=O)(=O)Nc2ccccc2C(=O)O)cc1C | ?
C=CCn1c(COc2ccccc2C)nnc1SCC(=O)O | 5%
N[C@@H](COP(=O)(O)O)C(=O)O | -12%
O=C(O)C1C2C=CC(C2)C1C(=O)N1CCN(C/C=C/c2ccccc2)CC1 (centres undefined) | 4%
